Screening data deposited in PubChem BioAssay by several laboratories.
Mtb H37Rv: M. tuberculosis H37Rv growth inhibitors, H37Rv strain (AID 1626). M. tuberculosis H37Rv growth inhibition; higher % means a stronger effect. inhibition, % at 10 µM; hits with a dose series show IC50 in µM. 0.95% of 220,000 active;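 active = confirmed in a dose series; inconclusive = inhibition above 80% but not taken into the dose series; inactive = below 80% or under 30% at every dose of the series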;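 also: bacteria incubated seven days before Alamar blue readout; 0% = bacteria only wells and 100% = bacteria with antibiotic wells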
YopH PTP inh: YopH tyrosine phosphatase inhibitors, primary screen, biochemical, fluorescence Ex485/Em525 | YopH tyrosine phosphatase [Yersinia enterocolitica] | inhibition, %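 (about 10 µM by stock and volumes)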 | 0.16% of 140,000 active;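 active = inhibition of 50% or more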;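 also: controls were vehicle for no effect and minimum signal wells for full effect; inactives centre near -20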
RecA intein inh: Mtb RecA intein splicing inhibitors, primary screen, biochemical, fluorescence, HTS; cell-free RecA intein splicing; inhibition, %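 (about 9 µM by stock and volumes)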; 0.75% of 290,000 active; AID 2221, 2009; in the data active = inhibition above about 30%; inconclusive = no clear call, values can overlap the other calls;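 also: 0% = vehicle wells and 100% = reference inhibitor control wells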
Target sequence (P9WHJ3 whole entry, looked up): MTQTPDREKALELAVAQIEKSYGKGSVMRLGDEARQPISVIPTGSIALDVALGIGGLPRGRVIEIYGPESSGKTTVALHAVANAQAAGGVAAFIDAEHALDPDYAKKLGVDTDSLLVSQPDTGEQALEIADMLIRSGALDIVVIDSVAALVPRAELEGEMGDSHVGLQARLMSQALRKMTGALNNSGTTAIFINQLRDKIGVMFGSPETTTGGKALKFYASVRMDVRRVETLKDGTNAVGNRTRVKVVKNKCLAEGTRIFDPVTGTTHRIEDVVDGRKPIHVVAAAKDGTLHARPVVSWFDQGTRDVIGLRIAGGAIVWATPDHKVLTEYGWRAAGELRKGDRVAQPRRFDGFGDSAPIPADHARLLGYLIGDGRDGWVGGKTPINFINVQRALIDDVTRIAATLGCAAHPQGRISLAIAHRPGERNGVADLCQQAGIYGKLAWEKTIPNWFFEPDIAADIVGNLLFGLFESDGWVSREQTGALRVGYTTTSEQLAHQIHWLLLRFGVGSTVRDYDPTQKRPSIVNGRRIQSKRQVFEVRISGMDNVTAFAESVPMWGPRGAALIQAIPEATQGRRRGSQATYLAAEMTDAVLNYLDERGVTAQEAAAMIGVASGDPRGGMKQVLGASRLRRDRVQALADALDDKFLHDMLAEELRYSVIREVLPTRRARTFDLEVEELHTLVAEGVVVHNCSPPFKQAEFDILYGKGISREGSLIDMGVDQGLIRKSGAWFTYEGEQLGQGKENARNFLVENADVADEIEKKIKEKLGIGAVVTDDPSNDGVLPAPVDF
Mtb bLac sens: beta-lactam sensitization of Mtb H37Rv, H37Rv | M. tuberculosis H37Rv growth with meropenem, percent inhibition; hits of this screen are not shown here | inhibition, % at 25 µM | 0.27% of 330,000 active | AID 434955, 2010;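 active = about 74% or more and at least 40 points above the plate without the antibiotic, then above 30% in a dose series; inconclusive = first-round hits that could not be retested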;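 also: growth measured after seven days incubation then overnight dye step; 0% = bacteria only wells and 100% = bacteria with antibiotic; twin plates without the antibiotic show which effects depend on it; some results filed as inactive read as strong as hits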
Arbovirus anti: antivirals against arbovirus infection, primary screen, cell-based, full library, 10K replicate subset. arbovirus infection cell-based antiviral screen. inhibition, % at 10 µM. 0.37% of 200,000 active. AID 1251, 2008;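 active = inhibition from about 30%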;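 also: bluetongue infection of BSR cells; cell survival read as ATP light after 72 h; 0% = infected wells without compound and 100% = uninfected wells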
Active calls of the source: *. The list is partial; count on the stated rates, not on these rows.

Start of the listing, in advance, 2 compounds:
What do the screens show for `CC(=O)Nc1ccc(/C=N/NC(=O)c2cccc(S(=O)(=O)N3CCOCC3)c2)cc1`?
Mtb H37Rv: -4%; YopH PTP inh: -22; RecA intein inh: -2.6; Mtb bLac sens: -4; Arbovirus anti: 3

Results for Cc1ccc(NC(=S)NCc2ccccc2)cc1C ?
RecA intein inh: 3.7; Mtb bLac sens: -1

Main list, previewed entries included:
What do the screens show for `CC(=O)Nc1ccc(/C=N/NC(=O)c2cccc(S(=O)(=O)N3CCOCC3)c2)cc1`?
Mtb H37Rv: -4%; YopH PTP inh: -22; RecA intein inh: -2.6; Mtb bLac sens: -4; Arbovirus anti: 3

Results for Cc1ccc(NC(=S)NCc2ccccc2)cc1C ?
RecA intein inh: 3.7; Mtb bLac sens: -1

Results for CC(C)c1cc(NC(=O)c2ccccc2)cc(C(C)C)c1O ?
Mtb H37Rv: 4%; RecA intein inh: 2.4; Mtb bLac sens: 2; Arbovirus anti: 3

How did N#Cc1c(/N=C/C=C/c2ccccc2)sc2c1CCCC2 do in these assays?
Mtb H37Rv: -4%; YopH PTP inh: -19; RecA intein inh: -2.6; Mtb bLac sens: 19; Arbovirus anti: 1

What do the screens show for `CCOc1ccc(S(=O)(=O)N2CCCC(C(=O)NCc3cccnc3)C2)cc1Cl` (configuration not stated)?
RecA intein inh: -1.8; Mtb bLac sens: -7

Results for Cc1cccc(-c2nnc(-c3ccc(N)cc3)o2)c1 ?
Mtb H37Rv: -10%; YopH PTP inh: -25; RecA intein inh: -1.3; Mtb bLac sens: -1; Arbovirus anti: 10

How did CC(C)n1c(NCCc2ccccc2)nc2c1c(=O)n(C)c(=O)n2C do in these assays?
Mtb H37Rv: -3%; YopH PTP inh: -24; RecA intein inh: 1.6; Mtb bLac sens: -5; Arbovirus anti: 30*

How did Cc1cc(C(=O)Nc2cc(C)on2)on1 do in these assays?
RecA intein inh: -21; Mtb bLac sens: -1

Results for COC(=O)c1noc(-c2ccc(C)cc2)n1 ?
Mtb H37Rv: -4%; YopH PTP inh: 7; RecA intein inh: -1.2; Mtb bLac sens: -5; Arbovirus anti: 5

What do the screens show for `CCc1nc2ccccc2n1CC(=O)N1CCN(Cc2ccccc2)CC1`?
Mtb H37Rv: 1%; RecA intein inh: 2.3; Mtb bLac sens: -11; Arbovirus anti: 3

Results for CCn1c(CNc2ccc(C)cc2)nnc1SCC(N)=O ?
Mtb H37Rv: -9%; YopH PTP inh: 28; RecA intein inh: -3.1; Mtb bLac sens: 1; Arbovirus anti: 7

Results for Cc1cc(=O)[nH]c(SCC(=O)O)c1C#N ?
Mtb H37Rv: -15%; YopH PTP inh: -28; RecA intein inh: -2.2; Mtb bLac sens: 1; Arbovirus anti: -2

What do the screens show for `CN(C)CCNC(=O)c1c(CSc2ccc(Cl)cc2)noc1C(=O)NCc1ccccc1`?
Mtb H37Rv: 1%; RecA intein inh: -1.5; Mtb bLac sens: 2

What do the screens show for `CN(C)c1ccc(C(C(=O)NCc2ccccc2)N(Cc2ccco2)C(=O)c2snc(C(N)=O)c2N)cc1` (configuration not stated)?
RecA intein inh: 2.2; Mtb bLac sens: 5

How did CS(=O)(=O)N1CCN(CC(=O)NC2CCCCC2)CC1 do in these assays?
Mtb H37Rv: -7%; RecA intein inh: -0.9; Mtb bLac sens: -6; Arbovirus anti: 1

What do the screens show for `Clc1ccc(-n2nnc(-c3cccnc3)n2)cc1Cl`?
Mtb H37Rv: 0%; RecA intein inh: -1.7; Mtb bLac sens: 28; Arbovirus anti: 4

How did COC(=O)C1=C(C)N(c2ccc(C)c(C)c2)/C(=C/c2ccc(O)cc2)C1=O do in these assays?
Mtb H37Rv: -1%; RecA intein inh: -0.8; Mtb bLac sens: 14; Arbovirus anti: -18

Results for CSc1ncc(Cl)c(C(=O)Nc2cccnc2)n1 ?
RecA intein inh: -2.7; Mtb bLac sens: 2

How did COc1ccc(Cc2nnc(NC(=O)C3CCCO3)s2)cc1OC (configuration not stated) do in these assays?
Mtb H37Rv: -4%; YopH PTP inh: -17; RecA intein inh: -0.8; Mtb bLac sens: 4; Arbovirus anti: 4

Results for Cc1cc(NC(=O)c2sc(Nc3ccc(F)c(Cl)c3)nc2N)no1 ?
Mtb H37Rv: 0%; RecA intein inh: 1.2; Mtb bLac sens: -1; Arbovirus anti: -19

What do the screens show for `O=C(C1CCN(S(=O)(=O)N2CCOCC2)CC1)N1CCC2(CC1)OCCO2`?
Mtb H37Rv: -10%; YopH PTP inh: -49; RecA intein inh: -1.5; Mtb bLac sens: -4; Arbovirus anti: 2

Results for COc1ccc(C(=O)N2CCN(Cc3ccccc3C(F)(F)F)CC2)cc1 ?
RecA intein inh: 1.4; Mtb bLac sens: -3

How did CCSc1ncc(Cl)c(C(=O)Nc2ccc(S(=O)(=O)Nc3onc(C)c3C)cc2)n1 do in these assays?
Mtb H37Rv: -1%; YopH PTP inh: -25; RecA intein inh: 1.4; Mtb bLac sens: -3; Arbovirus anti: 14

Results for Cc1nc(C)c(-c2csc(Nc3ccc(F)cc3)n2)s1 ?
Mtb H37Rv: 18%; RecA intein inh: 5.4; Mtb bLac sens: 42; Arbovirus anti: -4

What do the screens show for `COc1ccc(/C=C(/NC(=O)c2ccccc2)C(=O)Nc2cccc(C(=O)O)c2)cc1`?
RecA intein inh: -1.9; Mtb bLac sens: 0

How did O=C(Oc1cc(=O)oc2ccccc12)c1ccco1 do in these assays?
Mtb H37Rv: 3%; YopH PTP inh: -48; RecA intein inh: -0.7; Mtb bLac sens: 4; Arbovirus anti: 8

Results for O=C(O)c1ccc(/C=N/NC(=S)NC2CCCCC2)cc1 ?
Mtb H37Rv: -19%; RecA intein inh: -0.9; Mtb bLac sens: -17; Arbovirus anti: 5

What do the screens show for `C=CCn1c(COc2ccc(OC)cc2)nc2ccccc21`?
RecA intein inh: 1.7; Mtb bLac sens: 4

Results for Cc1ccc(C(=O)NNc2c3ccccc3nc3ccccc23)cc1 ?
Mtb H37Rv: 18%; RecA intein inh: -22; Mtb bLac sens: 22

What do the screens show for `CCOc1cc(/C=N/NC(=O)c2cccnc2)cc(Br)c1OCC(N)=O`?
Mtb H37Rv: -5%; RecA intein inh: -2.8; Mtb bLac sens: 4; Arbovirus anti: 2

How did O=C(O)CSc1nnc(COc2cccc3ccccc23)n1Cc1ccccc1 do in these assays?
Mtb H37Rv: -2%; RecA intein inh: 3.4; Mtb bLac sens: -4; Arbovirus anti: 4

What do the screens show for `CCOc1ccc2[nH]c(C(=O)N/N=C/c3cccc(OC)c3OC)cc2c1`?
RecA intein inh: 1.5; Mtb bLac sens: 5

What do the screens show for `COC(=O)NCCOc1cc(C)ccc1C`?
Mtb H37Rv: 1%; YopH PTP inh: -31; Mtb bLac sens: 0; Arbovirus anti: 2

How did O=C(NCc1ccccc1)c1cccn(Cc2ccccc2)c1=O do in these assays?
RecA intein inh: 3.3; Mtb bLac sens: 7

What do the screens show for `Cc1ccccc1Cn1cc(CCC(=O)N2CCOCC2)c2ccccc21`?
RecA intein inh: 3.4; Mtb bLac sens: 3

What do the screens show for `Cc1ccccc1NC(=O)Cc1cccs1`?
RecA intein inh: 0.3; Mtb bLac sens: -8

How did COC(C/C=C/[C@H](O)COCc1ccccc1)OC do in these assays?
Mtb H37Rv: -13%; RecA intein inh: 1.7

How did COc1ccccc1CC(=O)N1CCCC(CCC(=O)NCc2ccccc2F)C1 (configuration not stated) do in these assays?
Mtb H37Rv: 4%; RecA intein inh: -0.9; Mtb bLac sens: 1

Results for Cc1cccc2cc(CN(CC3CCCO3)C(=O)c3ccco3)c(=O)[nH]c12 (configuration not stated) ?
Mtb H37Rv: -12%; YopH PTP inh: -45; RecA intein inh: 1.2; Mtb bLac sens: -4; Arbovirus anti: 6

What do the screens show for `Cc1nc2c(C(=O)NCc3cccs3)cnn2c(C)c1Cc1ccccc1`?
Mtb H37Rv: 7%; YopH PTP inh: -13; RecA intein inh: -0.6; Mtb bLac sens: 1; Arbovirus anti: 6

Results for COC(=O)COc1ccc(S(=O)(=O)NCCC2=CCCCC2)cc1C ?
Mtb H37Rv: -2%; YopH PTP inh: -29; RecA intein inh: 3.1; Mtb bLac sens: inconclusive; Arbovirus anti: -2

What do the screens show for `Cn1c(SCC(=O)NC2CCCCC2)nnc1-c1ccccc1F`?
RecA intein inh: 0.3; Mtb bLac sens: 3

Results for CCc1ccc(N(C(=O)c2csnn2)C(C(=O)NC(C)(C)CC)c2ccccn2)cc1 (configuration not stated) ?
Mtb H37Rv: -3%; RecA intein inh: 1.2; Mtb bLac sens: 3; Arbovirus anti: -10

How did COc1ccccc1C(=O)N/C(=C/c1ccc(Br)cc1)C(=O)NCCO do in these assays?
Mtb H37Rv: 5%; YopH PTP inh: -38; Mtb bLac sens: -9; Arbovirus anti: 6

What do the screens show for `CCCn1c(CCc2ccccc2)n[nH]c1=S`?
Mtb H37Rv: -5%; RecA intein inh: -1.3; Mtb bLac sens: -3; Arbovirus anti: -5

Results for CC(=O)NCCc1nc2ccccc2n1Cc1cc(C)ccc1C ?
Mtb H37Rv: 0%; RecA intein inh: -1.7; Mtb bLac sens: -3

Results for COc1ccc(CNC(=O)C2CCCN2C(=O)NC2CCCCC2)cc1 (configuration not stated) ?
Mtb H37Rv: -17%; YopH PTP inh: -44; RecA intein inh: 1.2; Mtb bLac sens: -5; Arbovirus anti: 8

What do the screens show for `Cc1ccc(C(=O)Nc2ccncc2)c(C)c1`?
RecA intein inh: -2.5; Mtb bLac sens: -2

Results for COc1ccc(/C=N/NC(=O)Nc2cccc3nsnc23)cc1OC ?
Mtb H37Rv: -2%; YopH PTP inh: -25; RecA intein inh: 1.0; Mtb bLac sens: -5; Arbovirus anti: -7

What do the screens show for `O=c1[nH]c(-c2ccc(Cl)cc2)cs1`?
Mtb H37Rv: -6%; Mtb bLac sens: 2; Arbovirus anti: -10

What do the screens show for `Cc1ccc(Cl)cc1NC(=O)CC(O)(C(F)(F)F)C(F)(F)F`?
Mtb H37Rv: 8%; YopH PTP inh: -20; RecA intein inh: 3.2; Mtb bLac sens: 62; Arbovirus anti: -14

What do the screens show for `CCc1cc(=O)oc2cc(C)cc(OC(=O)c3ccco3)c12`?
Mtb H37Rv: -4%; YopH PTP inh: -33; RecA intein inh: 22; Mtb bLac sens: 5; Arbovirus anti: 4

How did C=CCn1c(-c2ccc(OC)cc2)csc1=Nc1c(C)n(C)n(-c2ccccc2)c1=O do in these assays?
Mtb H37Rv: -2%; YopH PTP inh: -29; RecA intein inh: 4.0; Mtb bLac sens: -1; Arbovirus anti: 10

What do the screens show for `Cn1c(C(=O)O)c(CC(=O)Nc2ccc3c(c2)OCCO3)c2ccccc21`?
Mtb H37Rv: -15%; YopH PTP inh: -46; RecA intein inh: 0.1; Mtb bLac sens: -8; Arbovirus anti: 8

How did COc1ccc(NC(=O)CN(C)C(=O)CCc2nc3cc(S(=O)(=O)N4CCOCC4)ccc3n2C)cc1 do in these assays?
RecA intein inh: -1.0; Mtb bLac sens: -5

Results for CC(=O)c1cccc(-n2nnnc2SCC(=O)NNC(=O)C2CCCCC2)c1 ?
Mtb H37Rv: -2%; RecA intein inh: -2.0; Mtb bLac sens: 6; Arbovirus anti: 5

What do the screens show for `Cc1ccc(S(=O)(=O)N2CCC3(CC2)CC(=O)c2ccccc2O3)cc1`?
RecA intein inh: 3.2; Mtb bLac sens: -10

What do the screens show for `CC1CCN(C2=NC(=O)/C(=C/c3ccc(O)cc3)S2)CC1`?
RecA intein inh: 1.0; Mtb bLac sens: 52

Results for CCC1=C(OC(=O)c2ccccc2)C(C)(C)C(c2ccccc2)OC1=O (configuration not stated) ?
Mtb H37Rv: 16%; YopH PTP inh: -5; RecA intein inh: 2.6; Mtb bLac sens: -12; Arbovirus anti: 5

How did O=C1/C(=C/c2cccc(Cl)c2)CSc2sccc21 do in these assays?
Mtb H37Rv: 0%; RecA intein inh: -15; Mtb bLac sens: 0

Results for CN1CCN(Cc2cccc3ncccc23)CC1CCO (configuration not stated) ?
RecA intein inh: -1.1; Mtb bLac sens: 0

Fetched one by one from above (4):
What do the screens show for `Cn1c(C(=O)O)c(CC(=O)Nc2ccc3c(c2)OCCO3)c2ccccc21`?
Mtb H37Rv: -15%; YopH PTP inh: -46; RecA intein inh: 0.1; Mtb bLac sens: -8; Arbovirus anti: 8

Results for COc1ccc(/C=N/NC(=O)Nc2cccc3nsnc23)cc1OC ?
Mtb H37Rv: -2%; YopH PTP inh: -25; RecA intein inh: 1.0; Mtb bLac sens: -5; Arbovirus anti: -7

Results for CN1CCN(Cc2cccc3ncccc23)CC1CCO (configuration not stated) ?
RecA intein inh: -1.1; Mtb bLac sens: 0

What do the screens show for `Cc1ccc(C(=O)Nc2ccncc2)c(C)c1`?
RecA intein inh: -2.5; Mtb bLac sens: -2
